Screening data (PubChem BioAssay)
MLL AF4-AF9 inh: inhibitors of AF4 peptide binding to AF9, primary screen, biochemical, AlphaScreen, biotin-AF4 peptide, FLAG-AF9, single point; 350,000 compounds, 0.47% hits; Protein AF-9 (Homo sapiens), P42568; inhibition, % at 10 µM;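 active = every replicate reaching a set inhibition limit, whatever the replicate mean, cut at about 25% in these data; inconclusive = mean inhibition reaches that limit but some replicates miss it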;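 note: 0% = plate neutral control median and 100% = total signal loss; the record names both 10 and 1 µM as test concentration; the first replicate is given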
Target sequence (P42568 whole entry, looked up): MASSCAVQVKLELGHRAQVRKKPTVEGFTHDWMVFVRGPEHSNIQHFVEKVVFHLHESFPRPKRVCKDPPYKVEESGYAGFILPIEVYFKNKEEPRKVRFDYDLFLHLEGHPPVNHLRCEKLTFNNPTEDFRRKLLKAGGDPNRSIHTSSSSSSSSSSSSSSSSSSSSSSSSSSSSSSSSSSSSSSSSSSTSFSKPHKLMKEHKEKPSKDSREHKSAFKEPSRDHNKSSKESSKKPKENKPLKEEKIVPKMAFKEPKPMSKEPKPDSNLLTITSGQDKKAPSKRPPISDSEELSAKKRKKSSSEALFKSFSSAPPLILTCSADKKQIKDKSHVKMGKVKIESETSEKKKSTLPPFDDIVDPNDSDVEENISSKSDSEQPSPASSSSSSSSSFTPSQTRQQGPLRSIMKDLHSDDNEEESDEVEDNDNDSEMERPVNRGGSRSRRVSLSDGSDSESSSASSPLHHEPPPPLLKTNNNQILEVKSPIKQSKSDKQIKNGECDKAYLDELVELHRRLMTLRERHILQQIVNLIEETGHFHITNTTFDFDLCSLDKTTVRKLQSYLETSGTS
Calb FLC: C. albicans growth inhibition with fluconazole, primary screen, CaCi-2 strain, Alamar Blue fluorescence. AID 1979, 2009. C. albicans CaCi-2 (fluconazole-resistant clinical isolate) + fluconazole, 48 h. 300,000 compounds, 0.57% hits. growth inhibition, % (concentration not given with the values);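 active = most replicates above 75%; inconclusive = exactly half above 75%; inactive = most below 75%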;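 note: all wells also contain fluconazole at 8 µg/ml as a sub-toxic cotreatment; 0% = median of DMSO wells and 100% = median of geldanamycin control wells; wells of about 8 µL received 7.5 nL stock; the first replicate is given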
Ecoli rRNA inh: reduced GFP signal of wild-type E. coli, primary screen, bacterial rRNA inhibitor project, GFP/RFP fluorescence, OD600, single point; E. coli WT GFP vs humanized-ribosome RFP mutants, 24 h; stronger effect = lower value; DMSO median 0, no signal -100; GFP signal change (wild-type ribosome), % (concentration not given with the values); 350,000 compounds, 1.6% hits;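 active = significant combined selectivity score with lowered wild-type GFP, culture density cut under 30%, mutant RFP and density less affected; inactive = any of these conditions unmet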; note: one replicate is shown; some compounds called inactive have numbers as strong as hits
Vif A3G: inhibitors of Vif binding to APOBEC3G peptide, primary screen, biochemical, TR-FRET, GST-Vif 1-94, biotin-A3G peptide, dose response retest (AID 1117319); 260,000 compounds, 0.57% hits; TR-FRET GST-Vif / biotin-A3G peptide binding; higher % means a stronger effect; test concentration not given here; strong numbers were not always called active; one-dose inhibition, %; IC50 in µM for titrated hits; Virion infectivity factor (Human immunodeficiency virus type 1 group M subtype B (isolate …;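 active = above the screen mean plus three standard deviations and confirmed in dose response; inconclusive = results disagree or hit not tested in dose response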;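 note: Vif residues 1-94 fused to GST binding biotinylated APOBEC3G peptide 110-148; 0% = full assay without inhibitor and 100% = GST in place of GST-Vif; retest series ran down from 100 µM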
T cruzi repl: inhibitors of intracellular T. cruzi growth, primary screen, luminescence, NIH3T3 host cells | 300,000 compounds, 1.4% hits | T. cruzi beta-gal in NIH3T3, 90 h | inhibition, % (no concentration beside the values);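 active = mean inhibition across valid replicates above about 55%, limit read from the data; inconclusive = mean below that limit but half or more replicates reach it; inactive = mean below it, under half of replicates reach it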;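 note: signal also drops with host cell toxicity which is not excluded here; 0% = plate median of DMSO wells and 100% = zero luminescence signal; higher percent means less beta-gal luminescence so fewer parasites; stock transfer was 50 nL into about 50 µL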
Bfl-1 A1 inh: caspase 3/7 activation in MEF A1-2A-BIM cells, primary screen, A1 inhibitor project, cell-based, luminescence, HTS; Caspase-Glo 3/7 luminescence, 3 h; percent of clofoctol response, vehicle zero; caspase activation, % (concentration not given with the values); 330,000 compounds, 0.066% hits;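 active = over half of replicate activation scores above 10%, or exactly half above 10 with the replicate mean above 10; inconclusive = replicate mean below 10 yet half the replicates above 10; inactive = over half of replicates below 10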;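 note: wells of about 30 µL received 50 nL stock; many hits fall short of the cut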
Beta apoptosis: inhibitors of cytokine-induced beta cell apoptosis, primary screen, luminescence | AID 435005, 2010 | INS-1E cytokine-induced death, ATP luminescence, 48 h; percent of positive-control rescue, neutral wells zero | 300,000 compounds, 0.8% hits | protection from apoptosis, % (test concentration not listed);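 active = all replicates at 75% or more, or half of them and the mean; inconclusive = half reach 75% but not the mean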;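 note: 0% = cytokine-treated negative control wells and 100% = positive control rescue; higher means more ATP so stronger rescue from cytokine killing; wells of about 40 µL received 100 nL stock; the first replicate is given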
RanGTP-Impb inh: inhibitors of RanGTP-importin-beta interaction, primary screen, biochemical, FRET, CFP-Ran, YFP-importin-beta, homogeneous. 300,000 compounds, 1.1% hits. Ran GTPase (GTP-bound) - importin-beta complex. cell-free CFP-Ran/YFP-importin-beta FRET ratio. AID 2216, 2009. inhibition, % (no concentration beside the values);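 active = most replicates above 15%; inconclusive = exactly half above 15%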;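 note: 0% = DMSO wells and 100% = Ran loaded with GDP instead of GTP; wells of about 40 µL received 100 nL stock; the first replicate is given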
Ecoli rRNA inh OD600: also measured in Ecoli rRNA inh; calls as there; OD600 change, %; measured here: OD600 growth;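 optical density of the mix in the first replicate; 0 = DMSO median and -100 = no signal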
Ecoli rRNA inh RFP: second read-out of Ecoli rRNA inh, no call of its own (marks repeat the call); RFP signal change, %; measured here: RFP humanized mutant strains;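 first replicate; 0 = DMSO median and -100 = no signal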
* = called active by the depositor; ? = inconclusive; nt = no result given; & = joins results of further samples. An excerpt; the hit share may differ from the screen's.

Structure	MLL AF4-AF9 inh	Calb FLC	Ecoli rRNA inh	Ecoli rRNA inh OD600	Ecoli rRNA inh RFP	Vif A3G	T cruzi repl	Bfl-1 A1 inh	Beta apoptosis	RanGTP-Impb inh
Cc1ccc(C)c(S(=O)(=O)Nc2ccc3scnc3c2)c1	nt	-6.9	nt	nt	nt	61.3%	-34.4	-0.6	11.2	1.3
O=C(c1ccncc1)N1N=C(C2CCCCC2)CC1(O)C(F)(F)F (stereo unspecified)	-1.2	-11.6	-24.1	-23.1	-2.2	nt	2.6	-0.5	4.3	1.1
COc1ccc(CNC(=O)C(c2ccc(C)cc2)N(Cc2cccs2)C(=O)c2ccc3c(c2)OCCO3)cc1 (stereo unspecified)	nt	1.5	nt	nt	nt	-3.0%	13.9	-0.2	4.3	1.2
CSc1nsc(SCC(=O)N2CCc3ccccc32)n1	nt	10.5	nt	nt	nt	5.2%	18.5	0.6	-4.8	-4.2
CCc1nnc(NC(=O)CCC(=O)Nc2ccc(OC)cc2OC)s1	6.2	3.7	13.0	13.1	-0.2	nt	-0.1	0.3	2.7	4.8
CCN(CC)S(=O)(=O)c1cccc(NC(=O)c2cccc(S(=O)(=O)N3CCCC3)c2)c1	5.7	nt	-6.9	-12.4	3.7	nt	nt	0.2	1.0	nt
CCCCc1nc2n[nH]c(N)c2c2c1CSC(C)(C)C2	nt	-0.8	nt	nt	nt	0.5%	11.9	-0.4	1.5	0.9
COC(=O)CSc1nc2ccc(C)cc2[nH]1	nt	-1.5	nt	nt	nt	3.1%	5.6	-0.4	-2.0	-0.1
COc1ccccc1-n1c(SCC(=O)Nc2cccc3ccccc23)nc(O)cc1=O	nt	8.4	nt	nt	nt	12.9%	-8.5	-0.2	-4.4	6.8
Cc1noc(C)c1S(=O)(=O)Nc1ccc(C(=O)N2CCc3ccccc3C2)cc1	nt	-2.8	nt	nt	nt	7.2%	-2.4	0.7	1.2	?
CC(O)[C@H]1CNCCN1CC1(c2ccccc2)CC1 (stereo partly specified)	-2.3	-8.9	6.0	17.0	8.0	nt	-4.7	-0.8	-1.1	3.4
CCn1c(SC(C)C(=O)Nc2nccs2)nnc1-c1ccncc1 (stereo unspecified)	-0.5	4.0	-6.0	-11.0	1.7	-4.5%	-2.9	0.2	-2.3	-2.2
Cc1ccc(C(=O)CCC(=O)N(C)CC(=O)Nc2c(Cl)cccc2Cl)cc1	-2.5	-8.0	0.7	25.0	-1.7	0.1%	-6.9	0.6	nt	-0.2
Cc1ccc(S(=O)(=O)Nc2ccc3c(c2)nc(CCN2CCCCC2)n3C)cc1	3.5	-6.8	-1.0	-0.9	-2.0	14.4%	15.6	-0.3	1.0	4.1
Cc1cccc(Cl)c1NNC(=O)Nc1c([N+](=O)[O-])c(C)nn1C	0.1	1.1	nt	nt	nt	-2.9%	-12.9	0.3	-8.7	-0.5
O=C(c1ccccc1)c1nnc(-c2ccccc2F)o1	nt	6.4	nt	nt	nt	-0.1%	-5.7	-11.3	-3.9	-0.4
CCO[C@@H]1OC(C(=O)N2CCN(Cc3ccc4c(c3)OCO4)CC2)=C[C@H](c2ccc3c(c2)OCO3)[C@H]1CCCO	-0.1	-7.8	-8.2	-15.1	11.3	2.5%	30.7	-0.6	8.5	1.5
S=c1nc(C2CCCCC2)[nH]c2ccccc12	2.3	-28.4	19.2	12.6	-1.2	-10.2%	-11.9	-0.2	-2.6	4.4
COc1ccc(C(OC(=O)c2c(C)noc2C)C(=O)NC2CCCC2)cc1 (stereo unspecified)	3.9	-0.5	12.5	1.4	-11.4	26.9%	10.6	0.2	3.8	0.8
Cc1cc(C)nc(NC(=O)CSc2nnnn2-c2ccccc2)n1	nt	-10.8	nt	nt	nt	-2.8%	-7.4	0.6	0.9	7.2
CCOc1cc(Br)c(/C=C2/C(=O)N(C)C(=S)N2CC(=O)OC)cc1OC	7.5	0.2	8.3	9.7	0.0	2.9%	1.4	-0.5	8.2	nt
c1ccc(OCc2nnc3sc(-c4cccs4)nn23)cc1	nt	18.2	nt	nt	nt	-14.1%	2.6	1.3	nt	3.5
Cc1ccc(C2=NNC(C(O)C(O)C(O)C(O)CO)S2)cc1 (stereo unspecified)	nt	1.1	nt	nt	nt	-1.8%	-8.7	0.1	-4.4	0.3
NC(=O)C1=C[C@H](c2csc3ccccc23)C[C@H](OCc2ccc(CO)cc2)O1	1.1&0.6	6.7	-55.7	-75.4	-23.1	nt	21.8	-4.5	-2.7	0.3
CC(=O)C(=Nc1ccccc1Cl)NNc1ccc(Cl)cc1	nt	-16.4	nt	nt	nt	-6.3%	-5.8	0.1	-8.2	-2.4

New compounds follow:
Structure	MLL AF4-AF9 inh	Calb FLC	Ecoli rRNA inh	Ecoli rRNA inh OD600	Ecoli rRNA inh RFP	Vif A3G	T cruzi repl	Bfl-1 A1 inh	Beta apoptosis	RanGTP-Impb inh
CC(=O)Nc1ccc(-c2cn3ccsc3n2)cc1	nt	30.9	nt	nt	nt	1.1%	9.0	-2.5	2.9	2.1
CC(=O)Nc1cccc(C(=O)OC(C(=O)c2ccc(C)c(C)c2)c2ccccc2)c1 (stereo unspecified)	nt	24.5	nt	nt	nt	-1.8%	48.5	1.6	1.4	1.1
CC(=O)c1cccc(NC(=O)N2CCCC2C(=O)NC2CCCC2)c1 (stereo unspecified)	-3.2	3.5	4.7	8.8	-2.3	nt	4.6	-0.6	-0.8	0.0
O=C(CN1CCCC1)NCC12CC3CC(CC(C3)C1)C2	nt	-9.2	nt	nt	nt	-1.4%	-7.5	0.0	-5.0	3.9
COc1ccc(Cl)cc1N(C(C)C(=O)O)S(C)(=O)=O (stereo unspecified)	-3.0	3.7	7.2	-0.8	-2.8	26.2%	-19.3	0.8	-4.8	-3.3
Cc1nc2cc(CC(=O)O)ccc2o1	nt	1.3	nt	nt	nt	-6.2%	-6.5	-0.1	0.3	4.3
Cc1ccc(C(=O)NC(=S)N2CCN(c3cc(C)ccc3C)CC2)cc1	0.5	-9.8	6.1	9.3	-0.1	-2.8%	-42.1	0.1	-0.8	-0.3
CC(C)Cn1cnc2c1c(=O)n(CC(=O)O)c(=O)n2Cc1ccccc1	-2.6	-6.2	7.6	12.2	-1.4	nt	-14.8	-0.6	nt	1.4
Oc1ccc(-c2csc(-c3cccnc3)n2)c(O)c1	1.3	26.0	-17.8	-22.0	-2.9	-3.9%	-6.4	-0.4	nt	-5.2
O=C(NNc1c(F)c(F)cc(F)c1F)c1ccco1	-1.3	nt	6.1	12.1	-2.6	nt	nt	1.5	0.3	nt
Cc1c(C(=O)Nc2ccc(OCc3ccccc3)cc2)cccc1[N+](=O)[O-]	nt	4.7	nt	nt	nt	?	-11.5	-0.1	6.2	?
Cc1cccc2cc(C3CC(c4cccs4)=NN3C(=O)CCC(=O)O)c(Cl)nc12 (stereo unspecified)	2.5	-11.9	-0.8	-11.5	-6.7	nt	0.5	-1.0	-4.0	-2.2
CC1CCc2c(C(=O)NCCCN3CCOCC3)csc2C1 (stereo unspecified)	nt	0.7	nt	nt	nt	1.3%	18.4	-0.4	-8.1	?
COc1ccc(CC(=O)NCc2ccccc2)cc1	3.2	-0.1	9.5	4.1	-1.8	-7.5%	-14.6	0.2	-1.7	2.4
CCC(C)NC(=O)Cn1cnc2sc(C)c(S(=O)(=O)N3CCCCC3)c2c1=O (stereo unspecified)	-1.9	0.0	-10.3	-8.3	-3.8	nt	-6.2	0.2	-5.3	-1.5
CCN(CC)CC#CC(C)OCOCC#CCOC (stereo unspecified)	nt	-2.4	nt	nt	nt	0.7%	-0.9	-0.4	-5.3	2.2
Cc1cccn2cc(-c3ccc(S(=O)(=O)N4CCCCC4)cc3)nc12	1.6	3.6	-22.4	-24.7	-3.1	1.5%	11.5	-3.9	13.6	-0.8
Cc1ccc(/C=C/S(=O)(=O)NCCC(=O)NCc2ccc(F)cc2)cc1	-1.9	nt	nt	nt	nt	-2.8%	nt	0.0	0.1	nt
FC(F)Sc1ccc(NC(=S)NC2CCCC2)cc1	2.4	-6.1	-50.5	-77.5	-13.4	-10.8%	-5.4	0.4	0.1	2.2
Cc1cc(N2CCN(c3nc(-c4ccccc4)cs3)CC2)c2ccccc2n1	5.0	57.4	-41.0	-66.3	-14.2	-1.1%	29.2	0.0	10.5	-0.2
CC(=O)NCc1nc2ccccc2n1C(C)C	-2.3	1.8	3.0	-0.4	0.5	-4.7%	-4.2	0.4	2.0	-5.0
Cc1nc(N(C)C)ncc1C(=O)O	nt	3.3	nt	nt	nt	-3.6%	-6.9	-0.7	2.0	-1.6
O=c1[nH]c(-c2ccncc2)nc2ccccc12	nt	-0.9	nt	nt	nt	16.8%	1.5	-0.2	-3.4	2.9
CN1CCN(S(=O)(=O)c2ccc(Sc3nnnn3-c3ccccc3)c([N+](=O)[O-])c2)CC1	9.5	15.4	-24.4	-9.7	-6.6	26.4%	-19.9	-0.3	nt	1.0
Cc1nc2scc(-c3ccc(C(C)(C)C)cc3)c2c(=O)n1N	-0.4	3.6	-17.4	-24.0	-0.9	-10.3%	-7.6	0.8	nt	2.6
O=[N+]([O-])c1ccc(-c2cnc3ccccc3n2)cc1	5.2	0.1	7.5	11.9	1.2	-6.9%	-0.4	-3.9	0.1	-2.6
C/C(CC(=O)Nc1ccccc1)=N\NC(=O)COc1ccc(C)cc1Br	-0.2	16.6	13.1	10.3	-2.6	6.3%	-2.6	-0.5	1.7	1.7
CNC(=O)N(O)C1N(NC(=O)Nc2cccc3ccccc23)C(=S)SC1(C)C (stereo unspecified)	5.9	4.4	-5.1	-13.6	0.8	8.7%	-3.6	0.0	17.9	-2.8
